Assay outcomes from PubChem.
hNpr1 antagonist: human Npr1 receptor antagonism; P16066; HEK293 hNpr1 GloSensor cGMP, ANP-stimulated luminescence; Potency, µM (titrated, usually from 46.3 µM), for the others: at the top dose activity change, negative = inhibition, actives largely listed as inhibitors; 76,000 compounds, 1.6% hits; AID 1347048; active = well fitted inhibition curve with a large enough effect; inconclusive = small, poorly fitted or top-dose-only effect; inactive = no such curve, though single readings can be large or run the other way;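 further: nearly all actives have a fitted effect of over 60% in size; nearly all hits also lower the signal before the agonist is added; a reference antagonist and vehicle were the controls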
Target sequence (P16066 whole entry, looked up): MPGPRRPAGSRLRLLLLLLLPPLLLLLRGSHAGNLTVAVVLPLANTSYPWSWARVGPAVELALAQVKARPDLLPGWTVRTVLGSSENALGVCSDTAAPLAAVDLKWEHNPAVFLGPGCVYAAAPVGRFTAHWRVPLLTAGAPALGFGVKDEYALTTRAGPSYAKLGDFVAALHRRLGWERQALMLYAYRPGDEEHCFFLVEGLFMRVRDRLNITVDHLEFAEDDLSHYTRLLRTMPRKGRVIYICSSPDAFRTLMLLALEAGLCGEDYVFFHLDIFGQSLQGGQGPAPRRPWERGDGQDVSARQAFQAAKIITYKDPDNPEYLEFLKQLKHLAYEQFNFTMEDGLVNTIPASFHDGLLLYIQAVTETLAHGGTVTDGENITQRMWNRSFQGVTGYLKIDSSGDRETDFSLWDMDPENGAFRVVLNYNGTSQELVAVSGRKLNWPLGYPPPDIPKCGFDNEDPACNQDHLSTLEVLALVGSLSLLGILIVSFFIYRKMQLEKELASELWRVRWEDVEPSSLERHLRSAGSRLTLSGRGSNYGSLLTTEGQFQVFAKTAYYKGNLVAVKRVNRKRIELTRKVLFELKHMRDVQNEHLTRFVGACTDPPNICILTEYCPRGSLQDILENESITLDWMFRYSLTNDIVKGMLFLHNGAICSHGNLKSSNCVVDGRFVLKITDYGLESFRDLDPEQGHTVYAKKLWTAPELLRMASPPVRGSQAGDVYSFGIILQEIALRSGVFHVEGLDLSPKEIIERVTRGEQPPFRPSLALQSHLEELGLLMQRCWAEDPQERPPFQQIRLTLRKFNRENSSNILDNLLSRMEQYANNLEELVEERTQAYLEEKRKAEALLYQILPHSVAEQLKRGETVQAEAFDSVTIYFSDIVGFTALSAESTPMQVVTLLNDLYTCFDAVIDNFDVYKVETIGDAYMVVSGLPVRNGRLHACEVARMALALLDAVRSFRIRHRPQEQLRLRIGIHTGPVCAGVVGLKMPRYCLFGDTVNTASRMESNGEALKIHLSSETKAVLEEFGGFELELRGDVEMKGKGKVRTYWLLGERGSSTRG
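HEK293 cells stably expressing human Npr1 and cGMP GloSensor pGS-40F, loaded 2 h with 2% GloSensor reagent, given compound 30 min at room temperature. Luminescence read before and 20 min after 0.1 nM hNppA.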
* = called active by the depositor; ? = inconclusive; & = joins results of further samples; [ ] = another dose, or the depositor's remark. On the % scale 0 is the no-effect control and ±100 the full control effect; potency means the concentration at half of the fitted maximal effect. Not all compounds are listed; count on the stated rates, not on these rows.

SMILES	hNpr1 antagonist
Cc1nc([C@@H]2CN(C(=O)C3CC3)C[C@H]2C(N)=O)n[nH]1	-0.5%
O=C(Nc1ccccc1)N1CC(Oc2cccc(-c3nc(-c4ccccc4)no3)c2)C1	-23.3%
O=C(Nc1cccc(F)c1)N1Cc2[nH]cnc2C[C@H]1c1nc(-c2ccc(Cl)cc2)no1	-14.6%
CC(=O)Nc1ccc(S(=O)(=O)N2CCN3C(=O)CN(C)C(=O)C3C2)cc1 (configuration not stated)	-3.1%
CN1CC(=O)N(c2ccccc2)Cc2c1ncnc2N1CCN(c2ccccn2)CC1	11.7%
O=C(Nc1ccc([C@@H](O)[C@H]2COCC(=O)N2Cc2ccccc2F)cc1)c1ccccc1	-8.9%[70.6 µM]
O=C1CNc2ccc(C(=O)N3CCn4nc(CO)cc4C3)cc2N1	-1.1%
O=C(NC1CCCCC1)C1CN(C(=O)c2ccc3c(c2)OCO3)CC12CCOCC2 (configuration not stated)	-2.6%
Cc1ccc(-c2cc3c(=O)n(CCNC(=O)c4ccc(F)cc4Cl)ccn3n2)cc1C	-20.3%
COc1ccc(-c2nnc(C[C@@H]3C[C@@H](C(C)C)[C@H](CN4CCN(CCO)CC4)C=C3C)o2)cc1	-3.9%
O=C(CCC[C@@H]1[C@H]2CCCN3CCC[C@@H](CN1C(=O)c1cccc(F)c1)[C@@H]23)NCC1CC1	-3.1%
CN(C)C[C@@H]1CN(Cc2ccccc2)C[C@H]1NC(=O)c1ccoc1	-1.5%
Cc1cn2nc(C(=O)NCc3ccc(C(C)C)cc3)cc2c(N2CCSCC2)n1	9.0%
O=C(c1ccccc1)N1CCC2(CC1)C(=NC1CCCC1)NC(=O)N2c1cc(F)cc(F)c1	0.0%
O=C1CC(c2ccccc2)N(C(=O)CNC(=O)c2n[nH]c3ccccc23)CCCCCCN1 (configuration not stated)	-6.0%
Cc1ccc(-n2c(C3CCN(C(=O)c4cccc(N(C)C)c4)CC3)n[nH]c2=O)cc1	0.9%
CC1=C[C@@H](CNC(=O)CC(C)(C)C)[C@H](C(C)C)C[C@H]1CC(=O)NCc1cccnc1	3.0%[70.6 µM]
CN1[C@@H](CCC(=O)Nc2ccccc2)CNC(=O)[C@@H]2[C@H]1CCN2CC(C)(C)C	-0.1%[70.6 µM]
CN(CC1CCOC1)S(=O)(=O)c1cccc(Br)c1 (configuration not stated)	-0.4%
CCC(=O)N1CCCC(c2nc(-c3ccc4nc[nH]c4c3)no2)C1 (configuration not stated)	-7.3%
COc1cccc(C(=O)N2CCC[C@H]2c2nc(-c3ccc(C)cc3)no2)c1	-5.3%
CC(C)c1ccc(S(=O)(=O)N2CC(c3nc(-c4ccncc4)no3)C2)cc1	?
O=C1CCN(Cc2ccc(F)cc2F)CCCC(c2nc(-c3cccnc3)no2)CCN1 (configuration not stated)	-21.7%
CCc1cccc(NC(=O)Cn2c(C)ccc(NS(=O)(=O)c3ccc(C)cc3)c2=O)c1	-1.2%
O=C1c2c(nc(CNCC3CCCO3)n2Cc2ccccc2)NCCN1CCOc1ccccc1 (configuration not stated)	-11.3%

The closing 7 compounds of the section before come first, to join the parts.
SMILES	hNpr1 antagonist
CN(CC1CCOC1)S(=O)(=O)c1cccc(Br)c1 (configuration not stated)	-0.4%
CCC(=O)N1CCCC(c2nc(-c3ccc4nc[nH]c4c3)no2)C1 (configuration not stated)	-7.3%
COc1cccc(C(=O)N2CCC[C@H]2c2nc(-c3ccc(C)cc3)no2)c1	-5.3%
CC(C)c1ccc(S(=O)(=O)N2CC(c3nc(-c4ccncc4)no3)C2)cc1	?
O=C1CCN(Cc2ccc(F)cc2F)CCCC(c2nc(-c3cccnc3)no2)CCN1 (configuration not stated)	-21.7%
CCc1cccc(NC(=O)Cn2c(C)ccc(NS(=O)(=O)c3ccc(C)cc3)c2=O)c1	-1.2%
O=C1c2c(nc(CNCC3CCCO3)n2Cc2ccccc2)NCCN1CCOc1ccccc1 (configuration not stated)	-11.3%
COc1ccccc1-c1noc(-c2nc(-c3ccc4c(c3)OCO4)no2)n1	1.7%
COc1ccccc1CN1CCCC(c2nn(-c3ccc(Cl)cc3)c(=O)[nH]2)C1 (configuration not stated)	21.2%
CCN1CCN(C(=O)CCC2CCN(Cc3ccc(N(C)C)nc3)CC2)CC1	2.0%
COc1ccc(C(=O)NCC2(COc3ccccc3)C[C@@H](O)[C@@H](O)C2)cc1 (some centres not stated)	-0.7%[70.6 µM]
CCNc1cc(N2CCC(CCC(=O)N3CCN(c4ncccn4)CC3)CC2)ncn1	?
Cc1ccc(C(=O)N(C)C2CCc3nn(CC4CC4)c(=O)n3CC2)s1 (configuration not stated)	5.1%
O=C(NCc1ccccc1F)c1ccc2c(c1)CN(Cc1cncs1)CCO2	-0.4%
O=C1CCN(S(=O)(=O)c2ccc3c(c2)CCC3)CCCC(C(=O)NCc2ccncc2)CCN1 (configuration not stated)	-0.3%
CCOc1ccccc1C1NC(=O)N(CC(=O)NCc2cccc(OC)c2)C2=C1C(=O)OC2 (configuration not stated)	3.0%
COc1cc(OC)c(NC(=O)Cn2ccn3nc(-c4ccccc4)c(CO)c3c2=O)cc1Cl	-12.6%
O=C(N[C@H](c1ccccn1)C1CC(O)C1)c1ccc(Cn2cccn2)o1 (some centres not stated)	3.2%
O=C(Nc1ccccc1)Nc1ccc([C@H]2OCC(=O)N(Cc3ccc(F)cc3)[C@@H]2CO)cc1	-16.1%
Cc1cc(C)c(NC(=O)Cn2c(=O)n(-c3ccc(F)cc3)c(=O)c3c2cc(C)n3C)c(C)c1	1.5%
CC(=O)N1CCC(c2noc(-c3ccccn3)n2)C1 (configuration not stated)	-1.5%
C[C@@H]1C(=O)O[C@H]2[C@H]1CC[C@@]1(C)Cc3sc(NS(=O)(=O)c4ccc(F)c(Cl)c4)nc3[C@@H](C)[C@H]21	-26.6%
O=C1CN(Cc2ccc(-c3cncnc3)cc2)CCN1c1nccc(Cl)n1	4.8%
Cc1cccc(OCCc2noc(C3CCCN(C(=O)C(C)C)C3)n2)c1 (configuration not stated)	-5.6%
COc1ccc(S(=O)(=O)N2CCC(c3noc(-c4ccccn4)n3)C2)cc1 (configuration not stated)	-3.2%
COCC(=O)NC[C@@H]1CC[C@H]2C[C@@H]1C2(C)C	-1.3%[70.6 µM]
C#CCNC(=O)C1CN(c2ccc(F)cc2)C(=O)N1 (configuration not stated)	0.9%[70.6 µM]
O=C([C@H]1C[C@H](Oc2cccnc2)CN1C(=O)c1ccc2ccccc2n1)N1CCOCC1	-1.1%
CN(C)Cc1nc(C(=O)N2CCC3(CC2)[C@H](O)C[C@@H]3O)cs1	6.3%
COc1ccc(S(N)(=O)=O)cc1C(=O)N1CCC2(CN(C)C(=O)O2)C1 (configuration not stated)	1.8%
CC1(CCCCN2CCOCC2)COc2ccc(C(=O)NCc3ccccc3)cc2N1 (configuration not stated)	0.6%[70.6 µM]
Cc1ccsc1C(=O)N1CCCC(Cc2nc(C3CCOCC3)no2)C1 (configuration not stated)	14.6%

Next part.
SMILES	hNpr1 antagonist
CCCNC(=O)C1C(c2cccc(NC(=O)c3ccc(C)cc3)c2)OC(=O)N1Cc1ccc(C)cc1 (configuration not stated)	?
CN(Cc1nccs1)Cc1cccn1C	-5.5%[70.6 µM]
Cc1ncc2n1C(=O)N(C1CCN(C(=O)c3ccccc3)CC1)C2	3.4%[70.6 µM]
CNC(=O)c1cc[nH]c1C1CCCN(Cc2ccc3c(c2)CCO3)C1 (configuration not stated)	-12.4%
COc1cncc([C@@H](NS(=O)(=O)c2cnn(C)c2)C2CC(O)C2)c1 (some centres not stated)	4.0%
Fc1ccc(OCCc2noc(C3CCCNC3)n2)cc1 (configuration not stated)	1.3%
O=C(NC1CCc2nnc(C3CC3)n2CC1)C1(c2ccccc2)CC1 (configuration not stated)	2.1%
CCn1ccnc1CN(C)c1nccc(-c2ccc(C)nc2C)n1	6.1%
CNC(=O)N1CC(c2noc(C3CCCN3C(=O)NCCc3ccccc3)n2)C1 (configuration not stated)	1.6%
CCCCN1C(=O)C(CC(=O)NC(C)(C)CC)Sc2ncccc21 (configuration not stated)	1.9%
COc1ccc(NC(=O)N2Cc3[nH]cnc3C[C@H]2c2nc(-c3ccc(C)cc3)no2)cc1	?
O=C(c1ccccc1)N1CCC2(C1)C(=O)N(CCc1ccccc1)c1ccccc12 (configuration not stated)	-11.2%&-25.7%
COc1ccc(NC(=O)Cn2nc3c(cc2=O)CCCCC3)cc1Cl	-12.4%
C#CCOc1ccc(C(=O)N[C@@H]2CN(Cc3ccc(CO)o3)CCC[C@H]2O)cc1	-4.1%[70.6 µM]
COC(=O)COCC(=O)N1Cc2[nH]cnc2C[C@H]1c1nc(-c2ccc(F)c(Cl)c2)no1	-1.7%
CC1(c2noc(-c3cccnc3)n2)CCN(C(=O)CCC(=O)n2ncc3c(Cl)cccc32)CC1	2.2%
CC(=O)Nc1cccc(-c2cn(C)c(=O)n3cc(COc4ccccc4)nc23)c1	-9.3%[70.6 µM]
Cc1cc(C(F)(F)F)nn1CC(=O)N1CCCC(CO)CCNC(=O)CC1 (configuration not stated)	3.0%
O=C(c1cccc(O)c1)N1CCCC(CCc2cccc(C(F)(F)F)c2)C1 (configuration not stated)	1.5%
CC(C)(C)c1ccc(-c2cc(C[C@H]3CNCC[C@H]3CC(=O)N3CCN(Cc4ccccc4)CC3)no2)cc1	3.9%
COCCNC(=O)N1CCc2c(sc3ncnc(N(C)C)c23)C1	-4.9%
Cc1nc2ccc(-c3nc(C4CCOC4)no3)cc2s1 (configuration not stated)	?
CCCCNC(=O)c1ccc2c(c1)N(S(=O)(=O)c1ccccc1F)CC2	0.7%
COCc1nncn1C1CCN(S(=O)(=O)c2cccc(OC)c2)CC1	-13.6%
COc1ccc(CNC(=O)CC[C@H]2CNC(=O)[C@@H]3[C@@H](CCN3CC(C)(C)C)N2C)cc1	7.8%[70.6 µM]

Structures above with a furan ring, fused or not:
SMILES	hNpr1 antagonist
CN(C)C[C@@H]1CN(Cc2ccccc2)C[C@H]1NC(=O)c1ccoc1	-1.5%
O=C(N[C@H](c1ccccn1)C1CC(O)C1)c1ccc(Cn2cccn2)o1 (some centres not stated)	3.2%
C#CCOc1ccc(C(=O)N[C@@H]2CN(Cc3ccc(CO)o3)CCC[C@H]2O)cc1	-4.1%[70.6 µM]

Next part
SMILES	hNpr1 antagonist
CCCNC(=O)N[C@@H]1CCC[C@@H](C(=O)NCc2ccc(OC)cc2)CC(=O)N(C)C1	5.5%[70.6 µM]
O=C(CC[C@@H]1CNC(=O)[C@@H]2C[C@H](NCc3ccc(CO)o3)CN12)NCc1ccc(F)cc1	3.8%
Cn1ccnc1CNC(=O)C[C@@H]1C[C@H]2O[C@H](CNC3Cc4ccccc4C3)[C@@H](O)[C@H]2O1	0.9%[70.6 µM]
Cn1c(Cn2cccn2)nnc1C1CCN(C(=O)N2CCOCC2)CC1	-5.9%
CCCN1C(=O)CC[C@H]2CN(C(=O)c3ccc4sccc4c3)CC[C@H]21	5.5%
CN(C1CCc2nn(CC3CC3)c(=O)n2CC1)S(=O)(=O)c1cn(C)cn1 (configuration not stated)	1.7%
COc1ccc(Cn2c(C3CCN(C(=O)C4CCCCC4)CC3)n[nH]c2=O)cc1	-1.7%
COc1ccc(-c2onc(C)c2C(=O)NCCCOC(C)C)cc1	-0.8%
CC1=C[C@@H](CN2CCN(c3ncccn3)CC2)[C@H](C(C)C)C[C@H]1Cc1nnc(-c2ccccc2F)o1	-21.2%
O=C(N[C@@H]1C[C@H](Cn2cc(C3CC3)nn2)[C@@H](O)[C@H]1O)c1cnccn1	0.8%[70.6 µM]
O=C(c1ccc(Cl)cc1)N1C[C@@H](F)[C@@H](OCc2nc3ccccc3[nH]2)C1	-1.7%[70.6 µM]
CCN1CCN(c2nc3c(s2)CN(C(=O)CCC(C)C)CC3)CC1	-15.2%
COc1cccc(CNC(=O)[C@@H]2C[C@@H](O)CN2C2CCN(C(=O)C(C)C)CC2)c1	-2.3%
COCCOc1ccc(-c2noc([C@@H]3CCCN3C3CCCCC3)n2)cn1	1.0%[70.6 µM]
COc1ccc([C@@H](NC2CCN(C(=O)C(C)C)CC2)C2CC(O)C2)cn1 (some centres not stated)	-0.3%
COCCN1CCNc2nc(CNCc3cnccn3)n(Cc3ccccc3)c2C1=O	2.9%[70.6 µM]
O=C(Cc1c[nH]c2ncc(-c3ccccc3Oc3ccccc3)cc12)N1CCOCC1	14.1µM*
CC(C)CCN1CCc2nc(N3CCc4ccccc4C3)[nH]c(=O)c2CC1	0.0%
CN1CCC(N[C@@H]2CCC[C@@H](C(=O)NC3CC3)CC(=O)N(C)C2)CC1	-2.1%[70.6 µM]
Cc1ccc(C(=O)N2CCCN(C)c3ccccc32)cc1C	1.3%
CC(C)c1ccc(CNC(=O)C2Cn3cccc3C(=O)N2)cc1 (configuration not stated)	-3.1%
CCOc1ccccc1C1NC(=O)N(CC(=O)N(CC)c2ccccc2)C2=C1C(=O)OC2 (configuration not stated)	-0.9%
O=C(NCc1ccccn1)C1CCN(Cc2cc3n(n2)CCNC3)CC1	7.0%
NC(=O)c1nnn([C@H]2C[C@H]3C(=O)N4CC[C@H](NC(=O)c5cccs5)[C@H]4C(=O)N3C2)c1C(N)=O	3.0%
CC(=O)N1CC2(Cc3ccccc31)CN(C(=O)Cc1ccccn1)C2	-5.9%[70.6 µM]
Cc1ccc(CNC(=O)N2CCCN(C(=O)C3CC3)C(c3ccccc3)CC(=O)NCC2)cc1 (configuration not stated)	1.0%
CCS(=O)(=O)N1CCC(N2C(=O)[C@H](OCCOC)[C@@H]2c2ccncc2)CC1	1.1%

hNpr1 antagonist: hit marks shown above
SMILES	hNpr1 antagonist
O=C(Cc1c[nH]c2ncc(-c3ccccc3Oc3ccccc3)cc12)N1CCOCC1	14.1µM*

A second format for part of the listing above:
| hNpr1 antagonist | SMILES |
| --- | --- |
| -5.9%[70.6 µM] | CC(=O)N1CC2(Cc3ccccc31)CN(C(=O)Cc1ccccn1)C2 |
| 1.0% | Cc1ccc(CNC(=O)N2CCCN(C(=O)C3CC3)C(c3ccccc3)CC(=O)NCC2)cc1 (configuration not stated) |
